N370S GC: N370S glucocerebrosidase modulation, Gaucher chaperone candidate; N370S GC spleen homogenate, 4MU-glucoside fluorescence; Potency, µM (doses to about 59.4 µM), for inactives: at the top dose activity change, negative = inhibition, usual class: inhibitors; actives 0.092% (n = 330,000); AID 2101;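 further: 0% = full enzyme activity and -100% = no enzyme basal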
GCN5L2 inh: GCN5L2 (KAT2A) acetyltransferase inhibition. Q92830. GCN5L2 HAT assay, ThioGlo1 CoA-SH fluorescence. Potency, µM (series often up to 58.9 µM), for the others: at the top dose activity change, negative = inhibition, hits mostly inhibitors. actives 0.21% (n = 390,000). AID 504327
Target sequence (Q92830 whole entry, looked up): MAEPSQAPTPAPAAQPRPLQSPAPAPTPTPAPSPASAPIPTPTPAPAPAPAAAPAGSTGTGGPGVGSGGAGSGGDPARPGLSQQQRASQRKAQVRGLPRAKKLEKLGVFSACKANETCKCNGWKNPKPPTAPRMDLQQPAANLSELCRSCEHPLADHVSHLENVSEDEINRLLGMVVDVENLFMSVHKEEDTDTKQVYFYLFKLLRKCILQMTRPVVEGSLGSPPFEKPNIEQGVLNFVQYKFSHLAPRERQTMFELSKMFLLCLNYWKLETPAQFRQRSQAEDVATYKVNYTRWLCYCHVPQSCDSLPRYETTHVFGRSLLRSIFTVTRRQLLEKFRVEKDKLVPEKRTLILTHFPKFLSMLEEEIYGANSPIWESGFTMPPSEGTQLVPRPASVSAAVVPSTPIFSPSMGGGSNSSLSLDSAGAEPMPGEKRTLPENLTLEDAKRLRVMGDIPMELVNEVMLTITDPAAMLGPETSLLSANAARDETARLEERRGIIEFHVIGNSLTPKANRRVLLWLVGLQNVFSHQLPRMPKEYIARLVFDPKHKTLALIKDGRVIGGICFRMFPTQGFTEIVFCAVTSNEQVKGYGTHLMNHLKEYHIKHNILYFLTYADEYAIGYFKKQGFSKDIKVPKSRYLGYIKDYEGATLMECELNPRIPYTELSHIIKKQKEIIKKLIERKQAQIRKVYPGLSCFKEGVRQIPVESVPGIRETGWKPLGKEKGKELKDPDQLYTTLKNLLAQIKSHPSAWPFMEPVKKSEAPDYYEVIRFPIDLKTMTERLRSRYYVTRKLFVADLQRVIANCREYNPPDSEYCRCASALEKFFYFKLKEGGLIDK
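Preincubate 20nM GCN5L2 with compound 15 min, RT → add 50uM ThioGlo1 + 75uM H3(1-25) + 70uM acetyl-CoA → read fluorescence 0 and 20 min. Primary qHTS; fluorescent artifacts likely.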
* = called active by the depositor; ? = inconclusive; · = not tested or not shown; & = joins results of further samples; [ ] = dose if it differs, or a comment. The call rests on the fitted dose curve; in most records, active means well fitted curve in the direction sought with a large enough effect; inconclusive means small, poorly fitted or top-dose-only effect, or another doubt; inactive means no such curve, though single readings can be large; an effect the other way counts as inactive or inconclusive. Unless noted, on the % scale 0 is the no-effect control and ±100 the full control effect; potency means the concentration at half of the fitted maximal effect.

Fields – N370S GC	GCN5L2 inh
O=C(/C=C/Nc1ccc(Br)cc1F)c1ccco1
  -2%	-10%
COc1cccc(-c2nc(CS(=O)(=O)CC(=O)N3CCOCC3)c(C)o2)c1
  -3%	-4%
COc1ccc(C(=O)Nc2ccc(C(F)(F)F)n(C)c2=O)cc1
  7%	-3%
O=C(CS(=O)CC(=O)Nc1ccc(Cl)cc1)NCC1OCCc2ccccc21 (stereo not drawn)
  -7%	-7%
O=S(=O)(Nc1nc2ccccc2nc1Cl)c1ccc(F)cc1
  -1%	-5%
COC(=O)C1CCN(C(=O)c2ccc(OC3CCN(Cc4ccccn4)CC3)cc2)CC1
  0%	3%
CCC1(c2ccccc2)NC(=O)N(CC(=O)Nc2ccccc2C(=O)N2CCCCC2)C1=O (stereo not drawn)
  3%	-6%
Cc1nnc(N2CCN(c3ccccc3F)CC2)c2c1nnn2Cc1ccccc1
  ·	-3%
CCC(=O)Nc1cccc(C(=O)OCc2cccc([N+](=O)[O-])c2)c1
  4%	9%
CCCN(C(=O)CSc1nc2ccccc2n1CC)C1CCS(=O)(=O)C1 (stereo not drawn)
  5%	-14%
CC(C)(C)c1ccc(C(=O)/C=C2\NC(=O)CS2)cc1
  -4%	-23%
CC1(C)OC(=CC=Nc2ccc(Cl)cc2)OC1(C)C
  20%	-9%
COc1ccc(CC(=O)NNC(=O)c2ccc(SCc3cc(F)ccc3F)c([N+](=O)[O-])c2)cc1
  -10%	24%
COC(=O)N/N=C/c1ccccc1OCc1ccccc1
  -2%	-3%
CC1(C)Cc2cccc(OCC(=O)NC3CC3)c2O1
  7%	-4%
COc1cccc(NC(=O)CN(C)C(=O)CNC(=O)c2ccccc2F)c1
  -14%	-25%
CCOc1ccc(NC(=O)CN(C)C(=O)C2CCCC2)cc1OCC
  0%	-2%
O=C(O)CCNc1ccc2c(c1)OCCO2
  12%	-2%
COc1ccc(NS(=O)(=O)c2cc(NC(=O)C3=NN(c4ccccc4)C(=O)CC3)ccc2OC)cc1
  ·	-5%
COc1ccc(NC(=O)Nc2ccc(F)cc2)c(C)c1
  2%	-2%
CCOn1c(=O)c(-c2cccc(Br)c2)[n+]([O-])c2ccccc21
  -10%	-1%
O=C(c1ccco1)N1CCN(CCOc2ccc(F)cc2)CC1
  -9%	-18%
CCCc1cc(=O)oc2cc(C)cc(OC(C)C(=O)NCCN3CCOCC3)c12 (stereo not drawn)
  ?	-8%
O=c1oc2ccccc2c(Nc2ccc3ncccc3c2)c1[N+](=O)[O-]
  0%	-4%
Cc1cc(NC(=O)c2ccc(N(C)S(=O)(=O)c3ccccc3)cc2)no1
  1%	-3%
Cc1ccc(NC(=O)CN(C)C(=O)/C=C/c2cccs2)cc1
  6%	-6%
COc1ccc(NC(=O)N(C)C[C@H]2Oc3c(NC(=O)C4CCCCC4)cccc3C(=O)N([C@H](C)CO)C[C@@H]2C)cc1
  ·	0%
CCN1CCC(C(N)=O)CC1
  2%	-14%[0.501 µM]
COc1ccc(CC(CN)c2ccccc2)cc1 (stereo not drawn)
  -2%	-4%
CCCCCCn1c(=O)c(-c2ccccc2)c(O)c2ccccc21
  4%	-3%

Copied from the list:
CC(C)(C)c1ccc(C(=O)/C=C2\NC(=O)CS2)cc1 in GCN5L2 inh is entered as -23%
O=C(CS(=O)CC(=O)Nc1ccc(Cl)cc1)NCC1OCCc2ccccc21 (stereo not drawn) in N370S GC is entered as -7%
CCC1(c2ccccc2)NC(=O)N(CC(=O)Nc2ccccc2C(=O)N2CCCCC2)C1=O (stereo not drawn) in N370S GC is entered as 3%

Following part:
Fields – N370S GC	GCN5L2 inh
COc1ccc(Nc2nc3c(S(=O)(=O)c4ccccc4)nnn3c3ccc(Cl)cc23)c(OC)c1
  ·	0%
CNC(=O)N(O)C1N(/N=C/c2cccnc2)C(=S)SC1(C)C (stereo not drawn)
  1%	-15%
Cc1ccc(S(=O)(=O)NCc2nc3cccnc3n2Cc2ccccc2Cl)c(C)c1
  ·	-3%
COc1cccc(C2C(C(=O)OC(C)C)=C(C)N=c3s/c(=C\c4ccc(C(=O)O)cc4)c(=O)n32)c1 (stereo not drawn)
  4%	-19%
Cc1ccc(OS(=O)Nc2cccc3nccnc23)cc1 (stereo not drawn)
  -5%	0%
O=C1OC(/C(=C\Nc2ccccc2)[N+](=O)[O-])c2ccccc21 (stereo not drawn)
  16%	-9%
CN1C(=O)SC(Nc2ccc(F)cc2)C1=O (stereo not drawn)
  2%	-2%
O=C(Nc1ccccc1Cl)N1CCN(c2ccc3nnc(-c4ccccc4)n3n2)CC1
  11%	-13%
C[C@H](CS)C(=O)N1CCC[C@H]1C(=O)O
  -12%&0%&-2%&-4%	3%&0%&22%&6%
CNC(=O)c1cn(-c2ccc(Cl)cc2)c(=O)c2ccccc12
  1%	-2%
CC(NC(=O)c1ccco1)C12CC3CC(CC(C3)C1)C2 (stereo not drawn)
  ·	-7%
O=C(CSc1nc2ccsc2c(=O)n1Cc1ccc(C(=O)O)cc1)NCc1ccco1
  3%	-8%
COc1cc(C(=O)OCC(=O)N2CCCCC2C)cc(NC(=O)c2cccs2)c1OC (stereo not drawn)
  -5%	-14%
Cn1c2c(c(=O)n(C)c1=O)CN(CCCN1CCOCC1)CN2
  1%	-11%
COC(=O)c1nnn(-c2cc(Cl)cc(Cl)c2)c1C(=O)OC
  4%	?
NC(=O)c1cc(Br)cc2c3c([nH]c12)CCCC3
  6%	-11%
Cc1cc(C(=O)N/N=C/c2ccccc2Br)no1
  1%	-5%
O=c1[nH]c2ccccc2nc1Cc1ccccc1
  ?	-4%
O=C(Cn1c(=O)oc2cc(S(=O)(=O)N3CCCCC3)ccc21)N1CCc2ccccc2C1
  -14%	-1%
Cc1noc(NS(=O)(=O)c2ccc(NC(=O)c3cnc4scc(C)n4c3=O)cc2)c1C
  -5%	-6%
O=C1C2ON(c3ccccc3)C(c3ccncc3)C2C(=O)N1c1ccc(Br)cc1 (stereo not drawn)
  -8%	-1%
O=C(c1cc2ccccc2o1)N1CCN(c2cccc(Cl)c2)CC1
  -1%	0%
Cc1cc(C)c2oc(=O)cc(CN3CCOCC3)c2c1
  -15%	-4%
COC(=O)c1sccc1NC(=O)COc1ccc(F)cc1Cl
  -7%	-6%
CC(=O)c1ccc(N2C(=NC(=O)CCC3CCCC3)SC3CS(=O)(=O)CC32)cc1 (stereo not drawn)
  0%	-9%
CCOc1ccc(OCC)c(S(=O)(=O)N2CCC(C)CC2)c1
  6%	-9%
CC(=O)O[C@]1(C(C)=O)CC[C@H]2[C@@H]3C=C(Cl)C4=CC(=O)CC[C@]4(C)[C@H]3CC[C@@]21C
  16%&-5%	-11%&22%
COC(=O)c1ccc(N2CCCCC2)c(N)c1
  9%	-3%
Cc1nnc(SCc2cc(=O)oc3ccc4ccccc4c23)n1Cc1ccccc1
  -6%	-8%
COc1ccc(CCNC(=O)Cn2nnc(C(=O)Nc3ccc(Br)cc3)c2N)cc1OC
  2%	-7%

By substructure: the compounds so far containing an NH in an aromatic ring.
Fields – N370S GC	GCN5L2 inh
NC(=O)c1cc(Br)cc2c3c([nH]c12)CCCC3
  6%	-11%
O=c1[nH]c2ccccc2nc1Cc1ccccc1
  ?	-4%

Going on with the list.
Fields – N370S GC	GCN5L2 inh
CCN(C(=O)CCNC(=O)Cn1cnc2ccccc2c1=O)c1cc(OC)ccc1OC
  ·	1%
CCCCc1cc(=O)oc2cc(C)cc(OC(C)C(=O)NCc3cccnc3)c12 (stereo not drawn)
  12%	-11%
CCN1CCN(c2ccc(S(=O)(=O)N3CCOCC3)cc2NC(=O)c2ccc(C)c(C)c2)CC1
  4%	-21%
COc1ccc(C2=NN(C(=O)CSc3nc(=O)n4ccc(C)cc4n3)C(c3ccc(C)cc3)C2)cc1 (stereo not drawn)
  0%	-6%
Cc1ccc(S(=O)(=O)Cc2nnnn2-c2ccccc2)cc1
  -1%	2%
CC(C)c1nc2cc3ccccc3cc2[nH]1
  -8%	-6%
Cc1cc2cc(CCNC(=O)c3cccs3)c(=O)[nH]c2cc1C
  -2%	0%
CCS(=O)CCSc1nc2ccccc2s1 (stereo not drawn)
  -13%	6%
CCN(c1ccc(NC(=O)CCNC(=O)c2ccco2)cc1)C(C)C
  12%	-1%
CCOc1ccc(/C=C2\CCC(C3CCCC3)C2=O)cc1OC (stereo not drawn)
  4%	-5%
COc1cccc(C2=NOC(C(=O)Nc3ccc4c(c3)OCO4)C2)c1OC (stereo not drawn)
  -9%	-10%
O=C(CCC(=O)N1CCOc2ccccc21)NCCCN1CCCCC1
  -4%	?
CCC(CC)NC(=O)Cc1ccc(F)cc1
  13%	-3%
Cc1ccccc1NC(=O)C(C)OC(=O)c1ccccc1C(=O)N(C)c1ccccc1 (stereo not drawn)
  0%	-2%
CC(C)(C)C(=O)/C(=C/c1ccncc1)n1cncn1
  -16%	-2%
COc1ccc(C(=O)Cn2c(=N)n(C)c3ccccc32)cc1
  0%	-1%
Clc1cccc(OCCN2CCCC2)c1
  3%	-12%
CC(C#N)Sc1nnc(Nc2ccccc2)s1 (stereo not drawn)
  0%	-9%
COc1cc(-c2nc(-c3ccccn3)no2)cc(OC)c1OC
  3%	-7%
O=C(c1cc(-c2cccs2)nc2ccccc12)N1CCN(S(=O)(=O)c2ccccc2)CC1
  1%	3%
CCOC(=O)CNc1nc(Cl)nc(Nc2ccc(Cl)cc2)n1
  -2%	17%
COc1ccc(Cn2nnc3c(=O)[nH]c(C4CCN(C(=O)c5ccccc5Cl)CC4)nc32)cc1
  -17%	-4%
CNS(=O)(=O)c1cn(CC(=O)NCc2ccc(OC)cc2)cc1S(=O)(=O)NC
  -4%	4%
COc1ccccc1C(=O)NNC(=O)C1CCCO1 (stereo not drawn)
  -2%	-3%
Cc1nnc(SCC(=O)Nc2nc(C(C)(C)C)cs2)s1
  1%	0%
c1ccc2c3c([nH]c2c1)C1(CCCCC1)NCC3
  9%	3%
Cc1ccc(CN2CCN(/N=C/c3ccc(Cl)c([N+](=O)[O-])c3)CC2)cc1
  -7%	-1%
COc1cc(C)nn1-c1ccc(Cl)cc1
  -5%	1%
COc1ccc(CCN=C2SCC(=O)N2C)cc1OC
  7%	-1%
CCN(CC(=O)NCc1ccc(F)cc1)C(=O)/C=C/c1ccco1
  -2%	-8%
CC(Oc1ccc(/C=N/NC(=O)Cc2cccc3ccccc23)cc1)C(=O)O (stereo not drawn)
  -8%	-4%
CCN(C(=O)CSc1nc2ccccc2o1)c1c(N)n(Cc2ccccc2)c(=O)[nH]c1=O
  -2%	-6%
CC(=O)N1CCc2c(sc(NC(=O)C3COc4ccccc4O3)c2C(N)=O)C1 (stereo not drawn)
  -1%	-33%
CN(C)c1ccc(/C=N/NC(=O)c2ccccn2)cc1
  -4%	-6%
NS(=O)(=O)c1cccc(NC(=O)COC(=O)CNC(=O)c2ccc(-c3ccccc3)cc2)c1
  ·	-8%
O=C(O)c1cccc(Cn2cc(Cl)cn2)c1
  0%	1%
O=S(=O)(N/N=C\c1ccc2c(c1)OCO2)c1ccc(F)cc1
  -2%	?
N#Cc1cccc(NS(=O)(=O)c2ccccc2Cl)c1
  ·	-8%
O=C(CCNS(=O)(=O)c1cccs1)N1CCCCCC1
  -5%	-4%
CC(C)n1c(NCc2ccc(N(C)C)cc2)nc2ccccc21
  5%	-4%
Cc1ccccc1COC(=O)c1nn(-c2ccccc2)nc1N
  13%	-15%&-8%
C=CCN1CCN(C(c2cccc(OC)c2OC)c2nnnn2CCC(C)C)CC1 (stereo not drawn)
  ?	-10%
C=C(C)c1cccc(C(C)(C)NC(=O)N2CCC(C(N)=O)CC2)c1
  18%	0%
COc1ccc(NS(=O)(=O)c2c(C)[nH]c(=O)[nH]c2=O)cc1OC
  -6%	2%
CC(=O)c1ccc(NC(=O)CSc2ccc3nnc(-c4ccccn4)n3n2)cc1
  1%	-9%
O=C(Nc1ccc2c(c1)CCC2)c1ccc(Br)s1
  7%	-9%
CCc1ccc(C2CC(c3ccccc3Cl)Nc3nc(N)nn32)cc1 (stereo not drawn)
  ?	-1%
CC(C(=O)Nc1cccc(Br)c1)c1ccc([N+](=O)[O-])cc1 (stereo not drawn)
  13%	-12%
CC(CCN1CCN(c2ccccn2)CC1)c1ccccc1 (stereo not drawn)
  -2%	-5%
CCCSc1nnc(NC(=O)Nc2ccccc2OC)s1
  -12%	-2%
COC(=O)c1ccccc1NC(=O)c1ccc2c(c1)CCN2S(=O)(=O)c1ccc(Cl)cc1
  ·	-4%

Entries of single compounds, looked up by structure:
CCCSc1nnc(NC(=O)Nc2ccccc2OC)s1 as listed: N370S GC = -12%; GCN5L2 inh = -2%
CC(CCN1CCN(c2ccccn2)CC1)c1ccccc1 (stereo not drawn) as listed: N370S GC = -2%; GCN5L2 inh = -5%

Some of these compounds in order of the N370S GC value, low to high.
mol	N370S GC	GCN5L2 inh
CC(Oc1ccc(/C=N/NC(=O)Cc2cccc3ccccc23)cc1)C(=O)O (stereo not drawn)	-8%	-4%
COc1ccc(NS(=O)(=O)c2c(C)[nH]c(=O)[nH]c2=O)cc1OC	-6%	2%
Cc1ccccc1COC(=O)c1nn(-c2ccccc2)nc1N	13%	-15%&-8%

Source: PubChem BioAssay

These rows are one share of the data, and most or all hits are left out here.
